Bioassay records deposited in PubChem BioAssay by National Center for Advancing Translational Sciences (NCATS).
DT40 TDP1 CPT = growth inhibition of DT40 Tdp1-/-;hTDP1 cells with camptothecin (screen for TDP1 inhibitors). chicken DT40 Tdp1-/-;hTDP1 cells + 20 nM CPT, ATP luminescence, 48 h. Potency, µM (doses to about 46.2 µM), without a hit: at the highest dose activity change, negative = growth inhibition, hits mostly inhibitors. actives 12% (n = 420,000). AID 686979; note: nearly all actives have a fitted effect of over 55% in size
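Cell growth measured by CellTiter-Glo luminescence after a minimum 48 h, 37 C compound exposure with 20 nM CPT in Tdp1-knockout DT40 cells stably expressing hTDP1, seeded 400/well; qHTS titration format.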
KAT2A inh = inhibitors of human GCN5L2 histone acetyltransferase | AID 504327 | Potency, µM (series often up to 58.9 µM), for the others: at the top dose activity change, negative = inhibition, usual class: inhibitors | actives 0.21% (n = 390,000) | Q92830 | GCN5L2 HAT assay, ThioGlo1 CoA-SH fluorescence
Target sequence (Q92830 whole entry, looked up): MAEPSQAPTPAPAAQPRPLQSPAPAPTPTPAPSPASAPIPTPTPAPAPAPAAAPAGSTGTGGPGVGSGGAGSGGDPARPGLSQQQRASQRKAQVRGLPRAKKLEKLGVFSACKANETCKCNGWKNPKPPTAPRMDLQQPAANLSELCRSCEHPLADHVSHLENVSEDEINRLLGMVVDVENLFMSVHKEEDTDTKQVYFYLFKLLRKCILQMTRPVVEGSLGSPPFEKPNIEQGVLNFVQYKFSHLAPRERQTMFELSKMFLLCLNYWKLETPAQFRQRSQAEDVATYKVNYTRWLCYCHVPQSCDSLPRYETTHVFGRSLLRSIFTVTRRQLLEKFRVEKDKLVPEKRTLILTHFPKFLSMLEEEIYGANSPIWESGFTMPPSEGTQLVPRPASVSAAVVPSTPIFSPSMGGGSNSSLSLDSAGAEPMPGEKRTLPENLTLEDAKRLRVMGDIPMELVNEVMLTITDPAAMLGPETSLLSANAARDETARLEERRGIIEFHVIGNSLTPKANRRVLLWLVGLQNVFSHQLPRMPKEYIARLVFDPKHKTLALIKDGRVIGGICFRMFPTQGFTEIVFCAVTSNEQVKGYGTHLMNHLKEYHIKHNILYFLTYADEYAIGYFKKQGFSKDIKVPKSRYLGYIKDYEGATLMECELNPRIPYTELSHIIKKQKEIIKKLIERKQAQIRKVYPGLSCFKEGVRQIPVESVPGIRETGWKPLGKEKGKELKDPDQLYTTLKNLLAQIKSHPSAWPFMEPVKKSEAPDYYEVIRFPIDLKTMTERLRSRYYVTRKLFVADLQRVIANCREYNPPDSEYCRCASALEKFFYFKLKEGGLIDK
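ThioGlo1-coupled HAT assay: 20nM GCN5L2, 70uM acetyl-CoA, 75uM H3(1-25) peptide, pH 7.5. Fluorescence read at 340/540nm at start and after 20 min at room temperature.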
Starred values were filed as active, the others as inactive; ? = inconclusive; / = no result given; & = joins results of further samples; [ ] = another dose, or the depositor's remark. Calls come from the whole dose curve; as a rule, active = well fitted curve in the direction sought with a large enough effect; inconclusive = small, poorly fitted or top-dose-only effect, or another doubt; inactive = no such curve, though single readings can be large; an effect the other way counts as inactive or inconclusive. % is set by controls: 0 for no effect and ±100 for the full control effect; potency is the fitted concentration of half-maximal effect. Only part of the results is shown; most or all hits stand in other tables.

SMILES	DT40 TDP1 CPT	KAT2A inh
COC(=O)c1cc(S(=O)(=O)NCC2CCN(Cc3ccc(F)cc3)CC2)cn1C	?	-11%&2%
C=CCN1C(=O)c2ccc(C(=O)NCC(c3ccccc3)N(C)C)cc2C1=O (stereo unspecified)	2%	-1%
Cc1nc(NC(=O)CCC(=O)O)sc1C(=O)N(C)C	-6%	-7%
CCc1nc(NCc2ccc3c(c2)OCO3)c2oc3ccccc3c2n1	13µM*	-9%
CC1CCCC(C)N1CCCNC(=O)CN1C(=O)c2cccnc2Oc2ccc(Cl)cc21 (stereo unspecified)	9%	?
Clc1ccc(-c2csc(N/N=C/c3ccco3)n2)cc1	?	-4%
CCC(c1nnc(SCC(=O)Nc2nnc(-c3ccccc3)o2)n1Cc1ccccc1)N(C)C (stereo unspecified)	28%	26%
c1ccc(N2CCN(Cc3ccnc4ccccc34)CC2)cc1	26µM*	-9%
CC(=O)N1CCC(C(=O)NC2CC(C)(C)Cc3c2cnn3-c2ccc(F)cc2)CC1 (stereo unspecified)	9%	-4%
CCOc1ccccc1C(=O)NCC(=O)OCC(=O)c1ccc2c(c1)OCCO2	-5%	-3%
O=C(NCc1cccs1)c1ccccc1	1%	0%
CN1C(C(=O)NCc2cccc(Br)c2)CC2Cn3c(nc4cc(Cl)c(Cl)cc43)C21 (stereo unspecified)	-27%	-6%
CC(C)COC(=O)N1CCCC1C(=O)Nc1nccs1 (stereo unspecified)	-23%	-13%
Cc1ccc(C(=O)Nc2cccc(C(=O)O)c2)cc1S(=O)(=O)N1CCOCC1	8%	-8%
COc1ccc(-c2cc(N3C(=O)Nc4ccccc4N3O)n[nH]2)cc1OC	29%	-8%
Cc1cc(C(=O)COc2ccc3ccc(=O)oc3c2)c(C)n1C	-16%	-4%
O=C(Nc1cccc(C(=O)N2CCOCC2)c1)c1ccccc1Cl	-11%	3%
COc1cccc(OC)c1OCCNCCO	?	-9%
NNC(=O)c1ccccc1OCc1ccccc1	-6%	5%
COc1cc(C(=O)OCC(=O)Nc2ccc(F)cc2F)cc(OC)c1OC	-19%	1%
COc1ccc(OC)c(NC(=O)c2ccc(Cl)cc2)c1	14%	1%
COc1ccc(OC)c(NC(=O)c2c(N3CCCC3=O)c3cc(OC)ccc3n2C)c1	/	1%
CCc1cccc(OCC(=O)Nc2c[nH]c(=O)[nH]c2=O)c1	-1%	-6%
O=S(=O)(CC12C3C4C5C1C2C(Br)(C43)C51OCCO1)c1ccccc1 (stereo unspecified)	-18%	2%
CC(C)(C)C1CCC(=NNC(=O)CN(c2ccccc2)S(C)(=O)=O)CC1 (stereo unspecified)	1%	-3%

No new results follow: 2 of the compounds above.
SMILES	DT40 TDP1 CPT	KAT2A inh
COC(=O)c1cc(S(=O)(=O)NCC2CCN(Cc3ccc(F)cc3)CC2)cn1C	?	-11%&2%
C=CCN1C(=O)c2ccc(C(=O)NCC(c3ccccc3)N(C)C)cc2C1=O (stereo unspecified)	2%	-1%

Following part
SMILES	DT40 TDP1 CPT	KAT2A inh
O=C(CCC(=O)N1CCOc2ccc(Cl)cc21)NCCCN1CCN(Cc2ccccc2)CC1	?	0%
CCOC(=O)N1CCC(NC(=O)c2cc3ccccn3n2)CC1	3%	-2%
Cc1ccc(N(CC(=O)Nc2ccc(Br)cc2)S(=O)(=O)c2cccs2)cc1	-8%	-2%
Cc1ccc(C(=O)C2CCN(CC(=O)NCc3ccc(F)cc3)CC2)cc1	?	1%
Cc1nn(CCN)c(C)c1Cl	3%	-7%
COc1cccc(CC(NC(C)=O)C(=O)NC2CCN(c3c(Cc4ccccc4)c(C)nc4ncnn34)CC2)c1 (stereo unspecified)	-9%	0%
CN(C(=S)NC(=O)c1ccc(Br)o1)c1ccccc1	-11%	-5%
CC(C)c1cc(C(=O)Nc2cccc(C(F)(F)F)c2)no1	2%	-10%
O=C(N1CCOCC1)N1CCCN(C(=O)N2CCOCC2)CC1	2%	0%
CNC(=O)C1CC(=O)N(Cc2ccc3c(c2)OCO3)C(=Nc2ccc(OC)cc2)S1 (stereo unspecified)	-2%	4%
CCCCOc1cccc(C(=O)O)c1	3%	-12%
CCC(=O)N1CCc2cc(S(=O)(=O)CCC(=O)N3CCCC(C)C3)ccc21 (stereo unspecified)	-7%	?
CC(=O)Nc1ccc(S(=O)(=O)N(C)c2ccc(O)cc2)cc1	2%	-4%
COc1ccccc1-c1noc2ncnc(Nc3ccc4c(c3)OCO4)c12	2%	0%
CC(NC(=O)CCCc1nnc2n(C)c(=O)c3sccc3n12)c1ccccc1 (stereo unspecified)	-7%	-10%
COCCN(Cc1cccs1)S(=O)(=O)c1ccc(-c2ccc(=O)[nH]n2)s1	-25%	-2%
Cc1occc1C(=O)Nc1ccccc1C(=O)O	-13%	-1%
O=C1c2ccccc2S(=O)(=O)N1Cc1c(F)cccc1Cl	-13%	-1%
CCCCC(=O)Nc1ccc(NC(=S)NC(=O)c2ccco2)cc1OC	13%	-13%
CCc1cccc(OCCOC(=O)CNS(=O)(=O)c2ccc(NC(C)=O)cc2)c1	0%	1%
COCC(=O)N1CCCC(N(C)CCc2ccc(OC)c(OC)c2)C1 (stereo unspecified)	1%	-8%
CCCOc1ccc(-c2cnc(SCC(N)=O)nc2N)cc1	-2%	-5%
O=c1c2c(nc3nc(SCc4ccccc4)[nH]n13)CCC2	-22%	-10%
CCCc1cc(=O)[nH]c(SCC(=O)N(C)Cc2ccccc2)n1	-9%	2%
COc1ccc(NC(=O)c2ccc(CNc3c(NC4CCCCC4)c(=O)c3=O)cc2)c(OC)c1	?	-16%
(continued)
SMILES	DT40 TDP1 CPT	KAT2A inh
COc1ccc(/C=N/NC2=NCCCCC2)c(OC)c1	-22%	-1%
c1coc(-c2nc3c4c5c(sc4ncn3n2)CCCC5)c1	-27%	-7%
Nc1ccc2c(c1)N=[N+]([O-])c1cc(N)ccc1C2	10%	-2%
CCOP(=O)(OCC)c1nc(-c2cccc([N+](=O)[O-])c2)oc1N1CCCCC1	?	-5%
COC(=O)CCCNC(=O)c1ccc2oc(CCCc3ccccc3)nc2c1	11%	-1%
S=C(NCCc1ccccc1)NCC(c1ccco1)N1CCCCC1 (stereo unspecified)	?	-5%
CCOc1ccc(CCNC(=O)CSc2ncn[nH]2)cc1OCC	17%	-4%
CC(NC(=O)c1ccc(C#N)cc1)C1CC2CCC1C2 (stereo unspecified)	-24%	-2%
CC(=O)c1c(C)[nH]c(C(=O)CSc2nnc(-c3ccc(Cl)cc3)n2CC2CCCO2)c1C (stereo unspecified)	-25%	-2%
CC(=O)c1cccc(NC(=O)c2cc(C(C)C)on2)c1	-2%	-5%
COCCC(=O)Nc1ccc2c(c1)CN(C(=O)c1ccc(CSC)o1)CC2	-28%	1%
CCOCCCNC(=O)C1CC(=O)N(CCc2ccc(C)cc2)C1 (stereo unspecified)	6%	-16%
Cc1cnn(-c2nc(-c3cccs3)cc(C(F)(F)F)n2)c1	?	-8%
Fc1cccc(Cn2cc(C(=S)N3CCOCC3)c3ccccc32)c1	?	-9%
N#C/C(C(=O)N1CCCCC1)=C1/N=C(NC(=O)c2ccc(F)cc2)c2ccccc21	-3%	-1%
C=CCn1c(C)c(C(=O)OCC)c2cc(O)c3ccccc3c21	30%[activator]	-12%
CC1CCCCN1C(=O)COc1ccc(S(=O)(=O)N2CCCC2)cc1[N+](=O)[O-] (stereo unspecified)	-7%	2%
Cc1cccc(Nc2nc3ccccc3n3nnnc23)c1	-20%	?
O=C(CSc1nc2ccccc2c(=O)n1Cc1ccco1)NCCN1C(=O)CSC1=O	0%	0%
C=C(C)C1CC=C(C)C(=NNC(=O)c2ccncc2)C1 (stereo unspecified)	9%	/
CCOc1ccc(C(C(=O)NC2CCCCC2)N(C(=O)c2ccccn2)c2cccnc2)cc1 (stereo unspecified)	2%	10%
CCS(=O)(=O)N1Cc2ccccc2CC1C(=O)Nc1ccc(F)cc1 (stereo unspecified)	-3%	-4%
COc1ccc(N(Cc2cccs2)C(=O)c2ccc(OC)c(Cl)c2)cc1	?	-11%
O=C(O)C1=NOC(CNC(=O)c2ccccc2Cl)C1 (stereo unspecified)	14%	-9%
Cc1cc(NC(=O)CSc2nc3c(C)c(C)ccc3cc2C)no1	4%	-4%

3 of these compounds in another layout:
| SMILES | DT40 TDP1 CPT | KAT2A inh |
| --- | --- | --- |
| COCCC(=O)Nc1ccc2c(c1)CN(C(=O)c1ccc(CSC)o1)CC2 | -28% | 1% |
| CCOCCCNC(=O)C1CC(=O)N(CCc2ccc(C)cc2)C1 (stereo unspecified) | 6% | -16% |
| Cc1cnn(-c2nc(-c3cccs3)cc(C(F)(F)F)n2)c1 | ? | -8% |

Following part:
SMILES	DT40 TDP1 CPT	KAT2A inh
O=C(Nc1ccc(Oc2ccsc2C(=O)O)cc1)c1ccccc1F	-11%	-4%
CN(c1cccc(NC(=O)c2ccccc2N(C)S(C)(=O)=O)c1)S(C)(=O)=O	7%	1%
CCOc1ccc(NS(=O)(=O)c2ccc(C(=O)NCC3(N4CCCCC4)CCCCC3)cc2)cc1	?	-1%
CCc1nc2c(C#N)c(-c3ccc(Cl)cc3)ccn2n1	-8%	-3%
O=C1CCCc2c1cnc1ncnn21	2%	-1%
Cc1ccc(Cl)cc1NC(=O)C1CC1c1ccccc1 (stereo unspecified)	21%	-6%
O=C(Nc1ccccc1Cl)c1ccc2ccccc2c1	-16%	-3%
O=C(Cc1cccc([N+](=O)[O-])c1)Nc1cccc(C(=O)N2CCCCC2)c1	?	-2%
CC1(C)CC(=O)C=C(Nc2ccccn2)C1	1%	-4%
COc1cccc2c(=O)n(CC(=O)N3CCN(c4ccccc4)CC3)ccc12	-12%	-3%
O=C1CC(NCc2ccc3c(c2)OCO3)C(=O)N1CCc1ccccc1 (stereo unspecified)	-3%	0%
CCOC(=O)c1sc(N)nc1-c1ccccc1	3%	-5%
O=C(Nc1ccc2c(c1)CCC2)Nc1ccccc1F	?	-1%
Cc1ccc2oc(=O)c3cnn(CC(=O)NC4CCN(Cc5ccccc5)CC4)c3c2c1	16µM*	-4%
COc1ccccc1NC(=O)Cn1c([N+](=O)[O-])cnc1C	3%	2%
COc1ccc(-c2cn(CCC(=O)NCc3ccc(C)cc3)c(CCN)n2)cc1	?	-1%
CC1CC(=O)NN=C1c1ccc(N)c([N+](=O)[O-])c1 (stereo unspecified)	0%	-2%
Cc1ccc(NS(=O)(=O)c2cccc(C(=O)NCC(c3cccs3)N3CCOCC3)c2)cc1 (stereo unspecified)	-27%	-7%
CCSC(=O)CCCCCCCCCCCO	-6%	-19%
COc1cc(C2NC(=O)CCC2[N+](=O)[O-])cc(OC)c1OC (stereo unspecified)	-14%	-3%
CC1CCC(NC(=O)c2ccc3snnc3c2)CC1 (stereo unspecified)	-20%	-5%
CCCn1c(SCC(=O)Nc2ccc(Cl)cc2)n[nH]c1=O	-2%	0%
COc1ccc(C2C(C(=O)N3CCN(c4ccccc4)CC3)c3ccccc3C(=O)N2C)cc1 (stereo unspecified)	-14%	-4%
Cc1cccc(N2CCN(C(=O)c3cc4c(=O)n(C)c5ccccc5c4n3C)CC2)c1C	?	-12%
O=C(CN1CCN(C2CCCCC2)CC1)c1ccc2cc[nH]c2c1	7%	0%
Remaining list, next part
SMILES	DT40 TDP1 CPT	KAT2A inh
O=C(OC1CCCCC1=O)c1cc(=O)c2ccccc2o1 (stereo unspecified)	6%	3%
O=C(Cc1ccc(Br)cc1)Nc1ccc2[nH]ncc2c1	1%	-3%
C(=N\Nc1nc(N2CCCC2)nc(N2CCCC2)n1)/c1ccncc1	3%	-8%
O=C(CN1C(=O)C2CCCCC2C1=O)Nc1nccs1 (stereo unspecified)	5%	-7%
O=C(Nc1cc(C(F)(F)F)ccc1Cl)c1cc(-c2ccc3c(c2)OCCO3)on1	?	-2%
Cc1nn(CCC#N)c(N)c1C1(O)C(=O)Nc2c(Cl)cc(Cl)cc21 (stereo unspecified)	16µM*	0%
Cn1nnc(NC(=S)NC(=O)c2cccc3c(Br)cccc23)n1	-7%	-10%
COC(=O)C1=NN(c2ccc(C)cc2)C2C(=O)N(c3ccccc3OC)C(=O)C12 (stereo unspecified)	-3%	-17%
CCn1c(SCc2cc(=O)n3ccsc3n2)nc2ccccc21	-1%	-4%
Cn1c(=O)[nH]c(=O)c2c1nc(N1CCc3ccccc3C1)n2CCSc1nc2ccccc2s1	-30%	-22%
O=c1[nH]c(=O)n(C2OC(CO)C(O)C2O)cc1Br (stereo unspecified)	?	-1%
COC(=O)c1cc(OC(=O)c2ccc(=O)[nH]c2)cc(C(=O)OC)c1	0%	0%
CCOc1ccc(-n2c(=O)c3c4c(sc3n(CC(=O)NCc3ccco3)c2=O)CCC4)cc1	-6%	-10%

Reformatted with two lines to a compound: part of the list above
Every second line gives: DT40 TDP1 CPT, KAT2A inh
O=C(CSc1nc2ccccc2c(=O)n1Cc1ccco1)NCCN1C(=O)CSC1=O
    0%, 0%
C=C(C)C1CC=C(C)C(=NNC(=O)c2ccncc2)C1 (stereo unspecified)
    9%, /

Full records as entered above:
`COC(=O)c1cc(OC(=O)c2ccc(=O)[nH]c2)cc(C(=O)OC)c1` is listed as DT40 TDP1 CPT = 0%; KAT2A inh = 0%
`Cc1nn(CCC#N)c(N)c1C1(O)C(=O)Nc2c(Cl)cc(Cl)cc21` (stereo unspecified) is listed as DT40 TDP1 CPT = 16µM*; KAT2A inh = 0%
`COc1ccc(C2C(C(=O)N3CCN(c4ccccc4)CC3)c3ccccc3C(=O)N2C)cc1` (stereo unspecified) is listed as DT40 TDP1 CPT = -14%; KAT2A inh = -4%
